MITF inhib: blocks MITF activity | TRPM1 promoter luciferase, luminescence, 24 h | inhibition, % (test concentration not listed) | AID 2240 | 37,000 tested, 0.28% active;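 active = most replicates at 85% or more, or half of them and the mean; inconclusive = half reach 85% but not the mean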;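 note: human melanocyte line stably carrying TRPM1 promoter luciferase reporter; 0% = vehicle wells and 100% = a positive control; the first replicate is given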
YB-1 expr inh: YB-1 expression inhibition. U2OS, qRT-PCR YB-1 vs CDIP delta delta Cp, 16 h; active compounds read high; zero = DMSO, each unit about twofold. 30,000 tested, 0.37% active. delta delta Cp (YB-1 minus CDIP) (concentration not given with the values);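 active = delta delta Cp rounded down to an integer at or above 3, about 3 SD of DMSO wells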;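 note: higher means less YB-1 transcript or more CDIP transcript relative to DMSO; stock transfer was 100 nL into about 100 µL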
Shh pathway inh: Sonic Hedgehog pathway inhibition. Shh-LIGHT2 Gli-luciferase reporter, 30 h. inhibition, % (concentration not given with the values). 22,000 tested, 2.1% active. AID 2313;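 active = replicate mean of 65% or more; inconclusive = mean lower but half the replicates past it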;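 note: pathway switched on by Shh-conditioned medium diluted 1 in 25 in low serum; 100 nL library stock added to about 40 µL; 0% = median of neutral wells and 100% = positive control level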
PD-1 reverse act: activators reversing PD-1 mediated T-cell inhibition; primary human CD4 T cells, PD-L1 beads, CellTiter-Glo 96 h; 29,000 tested, under 10 active; activation, % (test concentration not listed);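 active = replicate mean of 50% or more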;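 note: 0% = median vehicle wells and 100% = positive control; 100 nL library stock added to about 50 µL; numbers are from one replicate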
An asterisk follows results filed as active; ? = inconclusive; nt = no result given. Not all compounds are listed, so the mix of outcomes need not match the whole.

Compound | MITF inhib | YB-1 expr inh | Shh pathway inh | PD-1 reverse act
C[C@@H]1CN([C@H](C)CO)C(=O)c2cccc(NC(=O)Nc3ccc(C(F)(F)F)cc3)c2O[C@H]1CN(C)Cc1ccc(Oc2ccccc2)cc1 | 13.7 | 0.142 | -16.4 | -1.6
CCCCCCCCCC(=O)N[C@H](CN1CCOCC1)[C@H](O)c1ccccc1 | 9.7 | 0.717 | -71.5 | 3.7
COc1ccc(CN(C)C[C@@H]2Oc3ccc(NC(=O)Nc4ccc(C(F)(F)F)cc4)cc3CC(=O)N([C@H](C)CO)C[C@@H]2C)cc1 | 32.0 | 9.71* | nt | -1.1
CNC[C@H]1Oc2ccc(NC(=O)CCC(F)(F)F)cc2CC(=O)N([C@H](C)CO)C[C@H]1C | 2.2 | -0.208 | 4.5 | 0.1
CC(C)NC(=O)N(C)C[C@@H]1Oc2ccc(NC(=O)Nc3ccc4c(c3)OCO4)cc2C(=O)N([C@@H](C)CO)C[C@@H]1C | -12.4 | -0.447 | nt | -2.8
COc1cc(O)c2c(c1)C1=C[C@H](O)[C@@H](O)C[C@]1(C)OC2=O | -1.9 | -0.389 | 7.5 | -0.1
Cc1noc(C)c1S(=O)(=O)N(C)C[C@H]1OCCCC[C@@H](C)Oc2ccc(NS(=O)(=O)c3ccc(Cl)cc3)cc2C(=O)N([C@H](C)CO)C[C@@H]1C | 17.1 | 0.526 | 20.4 | nt
C[C@@H]1CN([C@@H](C)CO)C(=O)c2cc(NC(=O)Nc3ccccc3)ccc2O[C@H]1CN(C)S(=O)(=O)c1ccc(F)cc1 | -31.7 | -0.501 | 27.2 | nt
C[C@@H]1CCCCO[C@@H](CN(C)S(=O)(=O)c2cn(C)cn2)[C@@H](C)CN([C@H](C)CO)C(=O)c2cc(NC(=O)Nc3ccc(C(F)(F)F)cc3)ccc2O1 | 1.9 | -0.34 | -16.6 | nt
C[C@H](CO)N1C[C@H](C)[C@@H](CN(C)Cc2ccc3c(c2)OCO3)Oc2c(NC(=O)Nc3ccc(F)cc3)cccc2C1=O | -5.7 | 0.308 | -43.7 | -4.0
Cn1c(NC(=O)c2cccc(Cn3cc(Cl)cn3)c2)nc2ccccc21 | -1.9 | nt | nt | -4.2
C[C@@H]1CCCCO[C@H](CN(C)C(=O)c2ccncc2)[C@@H](C)CN([C@H](C)CO)C(=O)c2cc(NS(=O)(=O)c3ccccc3)ccc2O1 | 2.2 | 0.251 | 5.4 | nt
CC(=O)OC(c1nc2ccccc2c(=O)n1C1CC2(OC1=O)c1ccccc1N1C(=O)C(C)(C)N(O)C12)C(C)C (centres undefined) | -8.8 | -1.14 | 11.4 | -2.1
Cc1cc(=O)oc2cc(OC3OC(CO)C(O)C(O)C3O)ccc12 (centres undefined) | -10.8 | -0.024 | -22.5 | 1.4
CCOc1ccc(Oc2nc(Nc3ccc(C)cc3)nc(N(C)C)n2)nn1 | 34.6 | nt | nt | -2.2
COc1ccc(/C=C2\SC(=S)N(CCCC(=O)O)C2=O)cc1OC | 80.3 | -0.312 | 55.5 | -1.0
COc1ccc([C@@H]2CC(=O)c3c(O)cc(O[C@@H]4O[C@H](CO[C@H]5O[C@@H](C)[C@H](O)[C@@H](O)[C@H]5O)[C@@H](O)[C@H](O)[C@H]4O)cc3O2)cc1O | 1.5 | 1.01 | -31.4 | 0.7
C[C@@H]1CN([C@H](C)CO)C(=O)c2cc(NC(=O)Nc3ccc(F)cc3)ccc2O[C@@H]1CN(C)Cc1ccc2c(c1)OCO2 | -1.0 | -0.333 | nt | -0.6
CC1CCc2nc(NC(=O)c3ccc(Cc4ccccc4)cc3)sc2C1 (centres undefined) | 4.4 | -0.0737 | -4.9 | 0.5
C[C@H](CO)N1C[C@H](C)[C@@H](CN(C)Cc2ccc3c(c2)OCO3)Oc2c(NS(=O)(=O)c3ccccc3)cccc2C1=O | -11.8 | -0.227 | -14.8 | 0.1
C[C@@H]1CN([C@@H](C)CO)C(=O)c2cccc(NC(=O)Nc3ccc(F)cc3)c2O[C@H]1CN(C)C(=O)Nc1ccccc1 | -7.7 | -0.832 | -71.5 | 0.6
COC(=O)c1ccccc1NC(=O)c1ccccc1NS(=O)(=O)c1cccc2cccnc12 | 0.2 | nt | nt | -3.8
O=c1cc(-c2ccc(O)c(O)c2)oc2cc(O)cc(O)c12 | -60.1 | -0.183 | ? | nt
O=C1c2cccc3cccc(c23)C(=O)N1CCN1CCN(C(=S)Nc2cccc(S(=O)(=O)C(F)F)c2)CC1 | -1.5 | nt | nt | 3.6
C[C@H](CO)N1C[C@H](C)[C@H](CN(C)S(=O)(=O)c2ccccc2)Oc2c(NC(=O)Nc3cccc4ccccc34)cccc2C1=O | -10.8 | 0.452 | 6.7 | 1.7
CC(=O)Nc1ccccc1-c1nc2ccccc2nc1OCC(=O)c1ccc2ccccc2c1 | -31.9 | nt | nt | -0.2
COC(=O)C(C)Sc1ncnc2scc(-c3ccc(Cl)cc3)c12 (centres undefined) | 22.0 | nt | nt | -0.3
O=C(CC(O)(CC(=O)OCc1ccc(O[C@@H]2O[C@H](CO)[C@@H](O)[C@H](O)[C@H]2O)cc1)C(=O)OCc1ccc(O[C@@H]2O[C@H](CO)[C@@H](O)[C@H](O)[C@H]2O)cc1)OCc1ccc(O[C@@H]2O[C@H](CO)[C@@H](O)[C@H](O)[C@H]2O)cc1 | -22.1 | 0.285 | -29.4 | -0.3
NS(=O)(=O)c1ccc(N=Cc2c(O)[nH]c3ccccc23)cc1 | -4.6 | -0.143 | -16.3 | 2.2
C[C@@H]1CCCCO[C@@H](CN(C)CC2CCCCC2)[C@@H](C)CN([C@H](C)CO)C(=O)c2cc(NC(=O)Nc3ccc(F)cc3)ccc2O1 | -6.1 | 0.072 | nt | -2.9
COc1ccc(S(=O)(=O)N(C)C[C@@H]2Oc3c(NC(=O)c4ccc(-c5nccs5)cc4)cccc3C(=O)N([C@H](C)CO)C[C@H]2C)cc1 | -12.9 | -0.505 | 26.8 | nt
Cc1ccc(S(=O)(=O)/N=S(\C)c2ccccc2)cc1 (centres undefined) | -3.1 | -0.437 | 3.8 | 0.7
Cc1cc(C(=O)Nc2cccc3c2O[C@@H](CN(C)C(=O)Nc2ccc4c(c2)OCO4)[C@@H](C)CN([C@@H](C)CO)C3=O)n(C)n1 | -19.7 | 0.159 | -39.3 | nt
C[C@@H]1CCCCO[C@H](CN(C)S(C)(=O)=O)[C@@H](C)CN([C@H](C)CO)C(=O)c2cc(NC(=O)Nc3ccccc3)ccc2O1 | 2.1 | -0.436 | -28.4 | 1.1
C[C@H]1CN([C@@H](C)CO)C(=O)c2cc(NC(=O)CCN3CCOCC3)ccc2O[C@H]1CN(C)Cc1ccncc1 | -10.2 | -0.157 | -65.7 | 1.1
Cc1nc2nc[nH]n2c(=O)c1NS(=O)(=O)c1ccc(C2CCCCC2)cc1 | -11.7 | nt | nt | 3.3
C[C@@H]1CN([C@H](C)CO)C(=O)Cc2cc(NC(=O)c3ccncc3)ccc2O[C@H]1CN(C)Cc1ccc(-c2ccccc2)cc1 | 0.6 | -0.059 | 3.4 | nt
O=C(CCSc1nc(-c2ccccc2)cs1)Nc1ccccc1 | ? | nt | nt | -1.4
Nc1c(C(=O)NCc2ccccc2)c2nc3ccccc3nc2n1CCO | -4.8 | nt | nt | -1.5
CCOc1ccc2nc(SCC(=O)O)nc(C)c2c1 | -14.3 | nt | nt | -4.6
COc1ccc(NC(=O)N(C)C[C@H]2Oc3ccc(NC(=O)NC(C)C)cc3C(=O)N([C@H](C)CO)C[C@H]2C)cc1 | -17.8 | -0.122 | nt | -1.2
C[C@@H]1CN([C@@H](C)CO)C(=O)c2cc(NC(=O)CCN3CCOCC3)ccc2O[C@H]1CN(C)S(=O)(=O)c1ccc(F)cc1 | 1.6 | -0.12 | -8.8 | -0.7
Nc1ccc(C(=O)NCC2CCCN3CCCCC23)cc1 (centres undefined) | -9.1 | 0.798 | -14.3 | 0.4
C[C@H](CO)N1C[C@H](C)[C@H](CN(C)Cc2ccc(Oc3ccccc3)cc2)Oc2ccc(NC(=O)Nc3cccc4ccccc34)cc2C1=O | 18.7 | 0.0988 | nt | -5.3
C[C@H](CO)N1C[C@H](C)[C@@H](CN(C)S(=O)(=O)c2ccccc2)Oc2ccc(NC(=O)c3ccncc3)cc2C1=O | -7.8 | 0.107 | nt | 0.1
C[C@@H]1CN([C@H](C)CO)C(=O)Cc2cc(NC(=O)Cc3cn(C)c4ccccc34)ccc2O[C@H]1CN(C)C(=O)NC1CCCCC1 | -21.0 | 0.153 | 5.0 | 0.0
Cc1cc(Oc2ccccc2)nc(SCCOc2ccccc2)n1 | -60.7 | nt | nt | -0.4
COc1ccc(S(=O)(=O)N(C)C[C@H]2Oc3c(NC(=O)C4CCOCC4)cccc3C(=O)N([C@H](C)CO)C[C@H]2C)cc1 | -2.9 | 0.0914 | -1.6 | 0.7

Complete entries, looked up by structure:
Shown for C[C@@H]1CN([C@@H](C)CO)C(=O)c2cc(NC(=O)CCN3CCOCC3)ccc2O[C@H]1CN(C)S(=O)(=O)c1ccc(F)cc1 : MITF inhib: 1.6; YB-1 expr inh: -0.12; Shh pathway inh: -8.8; PD-1 reverse act: -0.7
Shown for Nc1ccc(C(=O)NCC2CCCN3CCCCC23)cc1 (centres undefined) : MITF inhib: -9.1; YB-1 expr inh: 0.798; Shh pathway inh: -14.3; PD-1 reverse act: 0.4
Shown for COc1ccc(S(=O)(=O)N(C)C[C@H]2Oc3c(NC(=O)C4CCOCC4)cccc3C(=O)N([C@H](C)CO)C[C@H]2C)cc1 : MITF inhib: -2.9; YB-1 expr inh: 0.0914; Shh pathway inh: -1.6; PD-1 reverse act: 0.7

Continued.
Compound | MITF inhib | YB-1 expr inh | Shh pathway inh | PD-1 reverse act
C[C@@H]1CN([C@@H](C)CO)C(=O)c2cccc(NC(=O)Nc3ccccc3)c2O[C@@H]1CN(C)S(=O)(=O)c1cn(C)cn1 | 1.2 | -0.0289 | -59.3 | -0.4
C[C@]1(CO)CCC[C@]2(C)C3=C(C[C@@H](O)C12)C(=O)OC3 (some centres undefined) | 8.9 | -0.411 | -28.6 | 1.8
C[C@@H]1CN([C@@H](C)CO)C(=O)c2cc(NS(=O)(=O)c3ccc(Cl)cc3)ccc2O[C@H]1CN(C)CC1CCCCC1 | 3.7 | 0.214 | -3.8 | 1.1
C[C@@H]1CN([C@H](C)CO)C(=O)c2cc(NC(=O)Cn3cnnn3)ccc2O[C@@H]1CN(C)S(=O)(=O)c1ccc(Cl)cc1 | -2.9 | 0.0179 | -5.6 | 1.0
COc1cccc(C(=O)OCC(=O)c2ccccc2)c1OC | -29.0 | -0.18 | -29.1 | -0.1
Cc1noc(C)c1NC(=O)Nc1cccc2c1O[C@H](CN(C)S(C)(=O)=O)[C@@H](C)CN([C@@H](C)CO)C2=O | -1.8 | -0.232 | 1.1 | 0.5
Cc1ccc(S(=O)(=O)N(C)C[C@H]2Oc3ccc(NS(=O)(=O)c4cccs4)cc3C(=O)N([C@H](C)CO)C[C@H]2C)cc1 | -8.9 | -0.0333 | nt | -0.4
C[C@H](CO)N1C[C@H](C)[C@H](CN(C)C)Oc2ccc(NS(C)(=O)=O)cc2CC1=O | -5.9 | 0.249 | -35.8 | nt
CC(C)NC(=O)Nc1ccc2c(c1)C(=O)N([C@@H](C)CO)C[C@@H](C)[C@H](CN(C)C(=O)Nc1ccc(C(F)(F)F)cc1)O2 | -12.2 | 0.419 | -37.2 | -1.1
COc1ccc(S(=O)(=O)N(C)C[C@H]2Oc3ccc(NS(C)(=O)=O)cc3C(=O)N([C@@H](C)CO)C[C@@H]2C)cc1 | -2.3 | 0.535 | nt | -1.8
C[C@@H]1CCCCO[C@H](CN(C)C(=O)c2ccncc2)[C@@H](C)CN([C@H](C)CO)C(=O)c2cc(NC(=O)NC3CCCCC3)ccc2O1 | -11.4 | 0.118 | -10.5 | 0.9
C=C1C(=O)O[C@@H]2[C@H]3O[C@]3(C)CCC=C(C)CC[C@@H]12 | 93.1* | -0.063 | 82.1* | -58.7
C[C@H]1CN([C@@H](C)CO)C(=O)c2cc(NS(C)(=O)=O)ccc2O[C@@H]1CN(C)Cc1ccc2c(c1)OCO2 | 2.5 | -0.197 | nt | nt
OC(CNC1CCCC1)Cn1c2ccc(Cl)cc2c2cc(Cl)ccc21 (centres undefined) | 30.7 | nt | nt | -17.1
C[C@H](CO)N1C[C@H](C)[C@H](CN(C)Cc2ccc(-c3ccccc3)cc2)Oc2ccc(NC(=O)c3ccncc3)cc2C1=O | -9.9 | -0.127 | nt | 3.6
CCCCC1CCC(C(=O)Oc2ccc(OCC)cc2)CC1 (centres undefined) | -0.6 | -0.298 | -23.8 | -0.6
COc1ccc(Cl)cc1NC(=O)CN(c1ccc(Br)c(C)c1)S(C)(=O)=O | -5.5 | nt | nt | 0.0
